Sa ugtP lethal = growth inhibition of S. aureus ugtP deletion strain. S. aureus RN4220 ugtP deletion, OD600 growth, 16 h; some inactives read as strong as hits. growth inhibition, % (test concentration not listed). 0.54% of 330,000 active. AID 1259309;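 active = z-score under -3 and OD600 up to 0.15 on both plates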;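 note: plate controls were untreated wells for no effect and antibiotic for full effect; wells of about 80 µL received 100 nL stock; the first replicate is given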
PrP 5UTR inh = suppresses PrP 5' UTR mRNA reporter expression | inhibition, % (concentration not given with the values) | cell-based PrP 5' UTR mRNA reporter, plate reader | 0.35% of 340,000 active;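 active = every replicate at 50% or more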;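 note: 0 = median of the neutral control wells; tested in H4 reporter cells; numbers are from one replicate; inactives centre near -14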
Mtb hypoxia rep = Mtb hypoxia fluorescent reporter inhibition; fluorescence inhibition, % (no concentration beside the values); AID 1159583; M. tuberculosis hypoxia-regulated fluorescent reporter, fluorescence; 0.1% of 300,000 active;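 active = 35 to 45% if threefold the growth effect, above 45% if 1.5-fold the growth effect; inactive = the rest, general growth blockers included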;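 note: wells of about 50 µL received 100 nL stock; 0% = vehicle wells and 100% = reference inhibitor wells; whole bacteria with a GFP reporter of the hypoxia response; strong numbers were not always called active; many hits fall short of the cut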
BJeLR lethal = BJeLR cell viability loss | BJeLR (HRASV12) viability, CellTiter-Glo ATP luminescence, 48 h; reference of the scale not given here | inhibition, % (test concentration not listed) | 0.17% of 300,000 active;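 active = replicate mean above 50%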;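 note: 50 nL library stock added to about 25 µL; numbers are from one replicate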
RN4220 kill = S. aureus RN4220 growth inhibition. 0.33% of 330,000 active. OD600, 16 h. inhibition, % (no concentration beside the values);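 active = z-score of -3 or lower and OD600 up to 0.18 on both plates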;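 note: plate controls were untreated cells for no effect and reference antibiotic for full effect; stock transfer was 100 nL into about 80 µL; one replicate is shown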
Bead autofluor = counter-screen for toxin protease inhibitors: compound fluorescence. 3.1% of 360,000 active. compound autofluorescence counterscreen, microsphere flow cytometry; stronger effect = higher value. AID 624483. fluorescence intensity (concentration not given with the values);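 active = at least 3 SD above the mean of all compounds, about 16000 in these data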;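 note: 100 nL of 1 mM stock went into each well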
Mtb hypoxia rep growth = second read-out of Mtb hypoxia rep, no call of its own (marks repeat the call); growth inhibition, %; measured here: M. tuberculosis growth (absorbance);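 0% = vehicle and 100% = reference antibiotic; read after six days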
* hit, by the source's call.

`CCN(CC)CCOCCOC(=O)C(CC)(CC)c1ccccc1` gave Sa ugtP lethal 7, Mtb hypoxia rep 19, BJeLR lethal -1, RN4220 kill 0.1, Bead autofluor 5366 and Mtb hypoxia rep growth 12.
O=C(CS(=O)(=O)Cc1ccccc1)NCc1ccco1 was read as Sa ugtP lethal -4, PrP 5UTR inh -14, Mtb hypoxia rep -13, BJeLR lethal -5, RN4220 kill 6.2, Bead autofluor 2128 and Mtb hypoxia rep growth -2.
C=CCN1C(=Nc2ccccc2)SC/C1=C\C(=O)OC was read as Sa ugtP lethal 17, PrP 5UTR inh -28, Mtb hypoxia rep 0, BJeLR lethal -5, RN4220 kill 11, Bead autofluor 9917 and Mtb hypoxia rep growth 11.
CCOC(=O)CCCCC(=O)NC(CO)C(=O)NC (stereo unspecified) was read as Sa ugtP lethal 2, PrP 5UTR inh -23, BJeLR lethal -8, RN4220 kill 1.8 and Bead autofluor 4731.
N#Cc1ccccc1COc1ccc(C=CC(=O)O)cc1 was read as Sa ugtP lethal -7, Mtb hypoxia rep 5, RN4220 kill 3.4 and Mtb hypoxia rep growth 4.
Screening NNC(=O)c1cccc(O)c1 returned Sa ugtP lethal 2, PrP 5UTR inh -22, Mtb hypoxia rep -3, BJeLR lethal 10, RN4220 kill 3.0, Bead autofluor 2083 and Mtb hypoxia rep growth 4.
`Cc1cc(C)cc(NC(=O)N(CCC#N)Cc2cccs2)c1` gave Sa ugtP lethal 3, PrP 5UTR inh -24, Mtb hypoxia rep 3, BJeLR lethal -1, RN4220 kill -0.1, Bead autofluor 3745 and Mtb hypoxia rep growth -8.
`COc1ccc(-n2c(C)cc(-c3csc(NC(=O)c4ccc(S(=O)(=O)N(C)C)cc4)n3)c2C)cc1` gave Sa ugtP lethal 11, PrP 5UTR inh -21, Mtb hypoxia rep 5, BJeLR lethal 14, RN4220 kill 7.1, Bead autofluor 9609 and Mtb hypoxia rep growth 0.
Screening Cc1ccc(-c2cc(C(=O)Nc3c(C)n(C)n(-c4ccccc4)c3=O)no2)cc1 returned Sa ugtP lethal 3, PrP 5UTR inh 0, Mtb hypoxia rep 13, BJeLR lethal 10, RN4220 kill 4.9, Bead autofluor 4619 and Mtb hypoxia rep growth 1.
For Nc1c(N=O)c(=O)[nH]c(=O)n1-c1ccccc1 the results were Sa ugtP lethal 3, PrP 5UTR inh -8, Mtb hypoxia rep -1, BJeLR lethal -6, RN4220 kill 1.5, Bead autofluor 4218 and Mtb hypoxia rep growth 9.

Two consecutive entries out of the list so far, quoted:
N#Cc1ccccc1COc1ccc(C=CC(=O)O)cc1 was read as Sa ugtP lethal -7, Mtb hypoxia rep 5, RN4220 kill 3.4 and Mtb hypoxia rep growth 4.
Screening NNC(=O)c1cccc(O)c1 returned Sa ugtP lethal 2, PrP 5UTR inh -22, Mtb hypoxia rep -3, BJeLR lethal 10, RN4220 kill 3.0, Bead autofluor 2083 and Mtb hypoxia rep growth 4.

Other compounds follow.
For O=C(COC(=O)CCSc1ccccc1)NCc1ccc(F)cc1 the results were Sa ugtP lethal 7, PrP 5UTR inh -29, Mtb hypoxia rep 14, BJeLR lethal -8, RN4220 kill 0.8, Bead autofluor 4110 and Mtb hypoxia rep growth 12.
Screening O=S(=O)(c1ccccc1)c1nc(-c2ccco2)oc1Nc1ccccc1 returned Sa ugtP lethal 8, PrP 5UTR inh -6, BJeLR lethal -6, RN4220 kill 6.6 and Bead autofluor 2093.
For C/C=C\C=C\C(=O)Nc1cccc(C2=NOC3(C2)C[C@@H](C(N)=O)N(C(=O)C(c2ccccc2)c2ccccc2)C3)c1 (stereo partly specified) the results were PrP 5UTR inh 8, BJeLR lethal -4 and Bead autofluor 4232.
`N#Cc1cccc(NC(=O)COC(=O)c2ccccc2Sc2ccccc2C#N)c1` gave Sa ugtP lethal 3, PrP 5UTR inh 5, Mtb hypoxia rep 1, BJeLR lethal 3, RN4220 kill 13, Bead autofluor 2469 and Mtb hypoxia rep growth 1.
`N#Cc1ccc(Cl)cc1NC(=O)COC(=O)c1ccc2c(c1)OCCO2` gave Sa ugtP lethal 2, PrP 5UTR inh -17, Mtb hypoxia rep 1, BJeLR lethal 10, RN4220 kill -1.0, Bead autofluor 4440 and Mtb hypoxia rep growth -3.
`Cc1ccc(-n2cc[nH]c2=S)cc1C` gave Sa ugtP lethal 0, PrP 5UTR inh -14, Mtb hypoxia rep 3, BJeLR lethal -14, RN4220 kill 4.1, Bead autofluor 2284 and Mtb hypoxia rep growth 11.
`O=c1nc(C=Cc2cccn2-c2ccc([N+](=O)[O-])cc2)cc(C(F)(F)F)[nH]1` gave Sa ugtP lethal -2, Mtb hypoxia rep 11, RN4220 kill 7.6 and Mtb hypoxia rep growth 4.
`COc1cccc(Cn2cc(C(=O)NCCN(C)C)nn2)c1` gave Sa ugtP lethal 4, PrP 5UTR inh -25, Mtb hypoxia rep 1, BJeLR lethal 1, RN4220 kill 2.2, Bead autofluor 4457 and Mtb hypoxia rep growth -5.
Screening CC1(C)CC(=O)C(C(=S)Nc2ccc(F)cc2)=C(NCCN2CCOCC2)C1 returned Sa ugtP lethal 3, PrP 5UTR inh -4, Mtb hypoxia rep 4, BJeLR lethal 19, RN4220 kill 2.1, Bead autofluor 1973 and Mtb hypoxia rep growth 20.
Screening Cc1ccc(/C=C/C(=O)Nc2nnc(SCc3ccc(C#N)cc3)s2)o1 returned Sa ugtP lethal -23, PrP 5UTR inh 1, Mtb hypoxia rep -1, BJeLR lethal 2, RN4220 kill 3.7, Bead autofluor 2680 and Mtb hypoxia rep growth -1.
For Cc1ccc2c(CC(=O)N(C)c3c(N)n(Cc4ccccc4)c(=O)[nH]c3=O)coc2c1 the results were PrP 5UTR inh -12, BJeLR lethal -2 and Bead autofluor 5518.
Screening O=C(COC(=O)c1cc(S(=O)(=O)N2CCOCC2)ccc1F)NCc1ccco1 returned Sa ugtP lethal -2, PrP 5UTR inh 3, Mtb hypoxia rep -2, BJeLR lethal -5, RN4220 kill -1.0, Bead autofluor 5375 and Mtb hypoxia rep growth 1.
Screening Cc1cccc(C=NNC(=O)Cn2nnnc2N)n1 returned Sa ugtP lethal 1, Mtb hypoxia rep -10, RN4220 kill 2.2 and Mtb hypoxia rep growth -6.
`CN(C)C(=O)COc1ncnc2sc(-c3ccccc3)cc12` gave Sa ugtP lethal 5, PrP 5UTR inh -14, Mtb hypoxia rep 17, BJeLR lethal -7, RN4220 kill 1.7, Bead autofluor 3726 and Mtb hypoxia rep growth 1.
For COCCOc1cc(N(CC(=O)N(C)C)S(=O)(=O)c2ccccc2)c(Cl)cc1Cl the results were Sa ugtP lethal 4, PrP 5UTR inh -15, Mtb hypoxia rep 13, BJeLR lethal -4, RN4220 kill 10, Bead autofluor 2667 and Mtb hypoxia rep growth 4.
Screening Cc1nc2ccc(NC(=S)N3CCCC3)cc2nc1C returned Sa ugtP lethal 3, PrP 5UTR inh -16, Mtb hypoxia rep 10, BJeLR lethal -17, RN4220 kill 5.1, Bead autofluor 3367 and Mtb hypoxia rep growth 8.
For CC(C)CCOc1ccc(/C=C2\CCn3c2nc2cc(C(=O)O)ccc2c3=O)cc1 the results were Sa ugtP lethal 16, PrP 5UTR inh -10, Mtb hypoxia rep 1, RN4220 kill 12, Bead autofluor 2548 and Mtb hypoxia rep growth 2.
`O=C(CCS(=O)(=O)c1ccccc1)N1CCOCC1` gave Sa ugtP lethal 7, PrP 5UTR inh -26, Mtb hypoxia rep 8, BJeLR lethal 3, RN4220 kill 0.3, Bead autofluor 4246 and Mtb hypoxia rep growth 15.
`CS(=O)(=O)c1ccc2nc(NC(=O)CCS(=O)(=O)c3ccccc3)sc2c1` gave Sa ugtP lethal 7, PrP 5UTR inh -4, Mtb hypoxia rep -3, BJeLR lethal 1, RN4220 kill 5.5, Bead autofluor 5370 and Mtb hypoxia rep growth -3.
`CN1CCN(c2ccc(N)cc2)CC1` gave Sa ugtP lethal -8, PrP 5UTR inh -25, Mtb hypoxia rep 2, BJeLR lethal 2, RN4220 kill 1.4, Bead autofluor 5453 and Mtb hypoxia rep growth 17.
For CN1C(=O)CC(C(=O)Nc2ccccc2F)SC1=Nc1ccc2c(c1)OCO2 (stereo unspecified) the results were Sa ugtP lethal 10, PrP 5UTR inh -10, Mtb hypoxia rep 6, BJeLR lethal -7, RN4220 kill 2.3, Bead autofluor 3883 and Mtb hypoxia rep growth 10.
Nc1nccnc1C(=O)OCC(=O)N1CCN(S(=O)(=O)c2ccc(Cl)cc2)CC1 was read as Sa ugtP lethal 6, PrP 5UTR inh -5, Mtb hypoxia rep 2, BJeLR lethal 1, RN4220 kill 1.6, Bead autofluor 5913 and Mtb hypoxia rep growth -1.
`CN(C)C=Nc1nc(-c2ccc3ccccc3c2)cs1` gave Sa ugtP lethal 18, Mtb hypoxia rep 5, RN4220 kill 3.0 and Mtb hypoxia rep growth 8.
For COC(=O)[C@]1(Cc2ccccc2)N[C@H](CN(C)C(=O)c2ccc(F)cc2)[C@@H]2C(=O)N(Cc3ccccc3)C(=O)[C@@H]21 the results were Sa ugtP lethal -4, PrP 5UTR inh -4, Mtb hypoxia rep -9, RN4220 kill 2.1, Bead autofluor 3670 and Mtb hypoxia rep growth 1.
`CCOC(=O)C1C2C=CC3(CN(Cc4ccccc4)C(=O)C13)O2` (stereo unspecified) gave Sa ugtP lethal 3, PrP 5UTR inh -11, Mtb hypoxia rep 6, BJeLR lethal 2, RN4220 kill 3.5, Bead autofluor 4350 and Mtb hypoxia rep growth 12.
CCN1C(=O)C(CC(=O)Nc2ccc(OC)cc2)N(Cc2cccs2)C1=S (stereo unspecified) was read as Sa ugtP lethal 14, PrP 5UTR inh -7, Mtb hypoxia rep -1, BJeLR lethal 1, RN4220 kill 5.6, Bead autofluor 16912* and Mtb hypoxia rep growth 1.
CCc1nn(CC(=O)NCCCN2CCN(C)CC2)c(=O)c2cc3sc(C)cc3n12 was read as Sa ugtP lethal 11, PrP 5UTR inh -10, Mtb hypoxia rep -10, BJeLR lethal -24, RN4220 kill 4.9, Bead autofluor 4874 and Mtb hypoxia rep growth -9.
For COc1cc(-c2nc(-c3ccncc3)no2)cc(OC)c1OC the results were Sa ugtP lethal 11, PrP 5UTR inh -6, Mtb hypoxia rep 13, BJeLR lethal 0, RN4220 kill 5.6, Bead autofluor 10760 and Mtb hypoxia rep growth 12.
`Cc1cc(=O)oc2cc(OCc3cc4c(cc3Cl)OCO4)ccc12` gave Sa ugtP lethal 3, PrP 5UTR inh -80, BJeLR lethal -9, RN4220 kill 3.7 and Bead autofluor 3080.
`Cc1cc(C)c(OCC(=O)OC(C)C(=O)NC2CC2)c(C)c1` (stereo unspecified) gave Sa ugtP lethal 2, PrP 5UTR inh -22, Mtb hypoxia rep -4, BJeLR lethal 3, RN4220 kill -0.5, Bead autofluor 5790 and Mtb hypoxia rep growth 1.
`COc1cc(/C=C/C(=O)OCC(=O)N2CCC(Cc3ccccc3)CC2)ccc1O` gave Sa ugtP lethal 11, PrP 5UTR inh -4, Mtb hypoxia rep -2, BJeLR lethal -2, RN4220 kill 8.8, Bead autofluor 2177 and Mtb hypoxia rep growth -3.

3 entries drawn at random from the list so far, as already listed:
`CCOC(=O)C1C2C=CC3(CN(Cc4ccccc4)C(=O)C13)O2` (stereo unspecified) gave Sa ugtP lethal 3, PrP 5UTR inh -11, Mtb hypoxia rep 6, BJeLR lethal 2, RN4220 kill 3.5, Bead autofluor 4350 and Mtb hypoxia rep growth 12.
`CN(C)C=Nc1nc(-c2ccc3ccccc3c2)cs1` gave Sa ugtP lethal 18, Mtb hypoxia rep 5, RN4220 kill 3.0 and Mtb hypoxia rep growth 8.
`Cc1cc(=O)oc2cc(OCc3cc4c(cc3Cl)OCO4)ccc12` gave Sa ugtP lethal 3, PrP 5UTR inh -80, BJeLR lethal -9, RN4220 kill 3.7 and Bead autofluor 3080.
